Compound activity from PubChem BioAssay.
PrP UTR inh: inhibition of PrP 5' UTR reporter expression. cell-based PrP 5' UTR mRNA reporter, plate reader. inhibition, % (concentration not given with the values). actives 0.35% (n = 340,000);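 active = every replicate at 50% or more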;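 note: 0 = median of the neutral control wells; tested in H4 reporter cells; numbers are from one replicate; inactives centre near -14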
BJeLR viability: BJeLR cell viability loss; inhibition, % (concentration not given with the values); actives 0.17% (n = 300,000); BJeLR (HRASV12) viability, CellTiter-Glo ATP luminescence, 48 h; reference of the scale not given here;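 active = replicate mean above 50%; inconclusive = above 50% but judged a plate artefact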;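 note: 50 nL library stock added to about 25 µL; numbers are from one replicate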
Mtb hypoxia rep: reduces hypoxia-regulated biosensor signal in M. tuberculosis; M. tuberculosis hypoxia-regulated fluorescent reporter, fluorescence; fluorescence inhibition, % (test concentration not listed); actives 0.1% (n = 300,000); AID 1159583;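 active = 35 to 45% if threefold the growth effect, above 45% if 1.5-fold the growth effect; inactive = the rest, general growth blockers included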;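 note: wells of about 50 µL received 100 nL stock; 0% = vehicle wells and 100% = reference inhibitor wells; whole bacteria with a GFP reporter of the hypoxia response; strong numbers were not always called active; many hits fall short of the cut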
ugtP null kill: growth inhibition of S. aureus ugtP deletion strain | S. aureus RN4220 ugtP deletion, OD600 growth, 16 h; some inactives read as strong as hits | growth inhibition, % (no concentration beside the values) | actives 0.54% (n = 330,000) | AID 1259309;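 active = z-score under -3 and OD600 up to 0.15 on both plates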;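 note: plate controls were untreated wells for no effect and antibiotic for full effect; wells of about 80 µL received 100 nL stock; the first replicate is given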
Autofluor counter: flagged as autofluorescent in microsphere protease counterscreen; compound autofluorescence counterscreen, microsphere flow cytometry; hits give high values; fluorescence intensity (no concentration beside the values); actives 3.1% (n = 360,000); AID 624483;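 active = at least 3 SD above the mean of all compounds, about 16000 in these data; inconclusive = too few beads counted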;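 note: 100 nL of 1 mM stock went into each well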
Sa RN4220 lethal: kills Staphylococcus aureus RN4220. S. aureus RN4220 growth, OD600, 16 h. inhibition, % (test concentration not listed). actives 0.33% (n = 330,000). AID 1259311;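 active = z-score of -3 or lower and OD600 up to 0.18 on both plates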;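 note: plate controls were untreated cells for no effect and reference antibiotic for full effect; stock transfer was 100 nL into about 80 µL; one replicate is shown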
Mtb hypoxia rep growth: recorded beside Mtb hypoxia rep, whose call it bears; growth inhibition, %; measured here: M. tuberculosis growth (absorbance);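 0% = vehicle and 100% = reference antibiotic; read after six days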
* hit, by the source's call; ? = inconclusive; . = not tested or not shown. An unsorted share of the library (roughly 4% active in at least one column).

SMILES | PrP UTR inh | BJeLR viability | Mtb hypoxia rep | Mtb hypoxia rep growth | ugtP null kill | Autofluor counter | Sa RN4220 lethal
COc1cc(/C=C/C(=O)Nc2ccc(C(C)=O)cc2)cc(OC)c1OC | -12.1 | 5.3 | 8.9 | 5.6 | 9.4 | 2050 | 2.9
CCOC(=O)c1c(-c2ccccc2)csc1NC(=S)N(CC)CC | -22.6 | -9.0 | 0.7 | -6.4 | 9.7 | 2591 | -5.1
COc1ccc(N2CCC(CNC(=O)Nc3ccc(OC)cc3OC)C2)cc1 (centres undefined) | -6.8 | -7.3 | -4.9 | -3.2 | 21.2 | 1774 | 20.3
COc1cccc(Nc2nc(=O)[nH]nc2C)c1 | -2.4 | -6.0 | . | . | 5.6 | 4785 | 3.7
O=C(O)CCC(=O)N1N=C(c2ccco2)CC1c1cccs1 (centres undefined) | -21.3 | -11.9 | . | . | . | 2238 | .
Cc1ccc(S(=O)(=O)N2CCCCC2)cc1NC(=O)Cn1ncc(Cl)c(Cl)c1=O | 9.2 | . | 1.8 | 15.2 | -6.9 | 3908 | 19.1
Cc1cccc2c(CCNC(=O)c3ccc([N+](=O)[O-])cc3)c[nH]c12 | -20.7 | 9.2 | . | . | . | 2432 | .
CN1CCOC(=O)/C1=N/Nc1cc(Cl)ccc1Cl | -8.6 | 1.1 | 13.3 | 0.5 | -0.2 | 3387 | 0.2
CCN(CC)c1ccc(-c2nnc(SCC(=O)N(CCOC)c3c(N)n(CC(C)C)c(=O)[nH]c3=O)o2)cc1 | -11.4 | -0.4 | -10.2 | 7.9 | 1.2 | 5489 | 1.5
Cc1nc(N2CCCC2C(=O)O)c2oc3ccccc3c2n1 (centres undefined) | -9.1 | -1.6 | 10.7 | 10.1 | 0.5 | 3124 | 3.4
CN(C1CCCCC1)S(=O)(=O)CCNC(=O)c1ccccc1 | -4.3 | 4.5 | 6.9 | 6.9 | 4.2 | 6387 | 2.7
COCCn1c(=O)[nH]c2cc(C(=O)N3CCN(c4cccc(Cl)c4)CC3)ccc2c1=O | -16.2 | -10.4 | 11.9 | -1.3 | 14.8 | 5668 | 0.3
CCOc1cc(/C=N/NC(=O)c2cc(-c3ccccc3)nc3ccccc23)ccc1O | -13.7 | -3.4 | . | . | . | 4091 | .
COc1ccc(S(=O)(=O)n2[nH]c(=O)c(CCO)c2C)cc1 | -19.4 | -0.7 | -2.0 | 0.0 | 3.0 | 5443 | -1.4
COc1ccccc1N1CCN(C2CCCN(C(=O)CCc3c(C)noc3C)C2)CC1 (centres undefined) | -0.5 | 4.3 | 3.9 | -10.2 | 9.4 | 4307 | 5.1
CCOCCCn1c(=S)[nH]c2cc(C(=O)N3CCC(C(N)=O)(N4CCCCC4)CC3)ccc2c1=O | -8.0 | 8.6 | 9.6 | -1.2 | -70.1 | 3891 | 11.2
O=C(COC(=O)CNC(=O)c1ccccc1F)Nc1nnc(-c2ccccc2)o1 | -2.4 | -1.3 | 11.5 | 3.9 | 3.9 | 4949 | 1.4
Nc1ccc2c(c1)oc1ccccc12 | -40.9 | 4.5 | -3.5 | 0.5 | 5.4 | 22331* | -1.9
COc1ccccc1NC(=O)c1sc2ncn(Cc3cccc(C)c3)c(=O)c2c1C | -14.0 | -0.6 | 6.9 | 5.5 | 9.5 | 5672 | 1.3
Cc1[nH]c2ccccc2c1C=NNC(=O)CNC(=O)c1ccccc1 | . | . | 8.3 | 13.0 | -1.7 | . | -0.5
NS(=O)(=O)c1cccc(NC(=S)NC(=O)C23CC4CC(CC(C4)C2)C3)c1 | -15.2 | -8.5 | -1.8 | 2.9 | -16.3 | 2073 | 9.0
COCCn1c(SCC(=O)Nc2nc3ccccc3s2)nnc1-c1ccoc1C | -9.9 | -3.3 | 0.9 | 6.8 | 1.2 | 3952 | 7.0
CCc1noc(C)c1C(=O)Nc1cc(S(=O)(=O)N2CCCCC2)ccc1N(C)C | -18.8 | 1.6 | 1.9 | -3.0 | 3.2 | ? | 0.9
O=C(c1cc(-c2cccs2)on1)N1CCN(c2ccc(F)cc2)CC1 | 6.8 | . | 11.4 | 1.4 | 0.3 | 21562* | 2.0
COc1cccc(-c2cc(C(=O)N3CCOCC3)no2)c1 | -30.1 | 3.9 | -1.8 | 8.6 | -1.2 | 3787 | 3.7
CN(CC(=O)Nc1ccccc1Br)C(=O)CCC1CCCC1 | -19.0 | -4.6 | 5.8 | 3.9 | 11.1 | 5565 | 0.9
COc1ccc(CNCC(=O)Nc2cc(C)nn2-c2nc(C)cc(C)n2)cc1OC | . | -0.6 | 12.4 | 4.8 | 5.7 | . | 1.4
COc1ccc(OCC(N)=O)cc1 | -0.3 | 3.4 | 8.3 | 6.2 | 2.7 | 3951 | -1.7
COc1ccccc1N1CCN(S(=O)(=O)c2ccc3c(c2)NC(=O)C(C)S3)CC1 (centres undefined) | -4.6 | -8.6 | -9.5 | -1.3 | 3.2 | 6378 | 4.1
CN1CCCC2(CCCN(Cc3nc(Cc4cccc(C(F)(F)F)c4)no3)C2)C1 (centres undefined) | -14.8 | 2.5 | 3.9 | 10.8 | 0.4 | 3152 | 7.7
CC(=O)Oc1ccc2c(C)cc(=O)[nH]c2c1 | -12.4 | 4.4 | 14.1 | 8.6 | -2.7 | 2404 | 5.0
C/C(=N\NC(=O)c1cc(-c2cccc(OC(C)C)c2)nc2ccccc12)c1cccnc1 | -19.5 | -2.9 | . | . | . | 5575 | .
CC(=O)NCc1cn2c(C)csc2n1 | -11.8 | 1.7 | 6.7 | 9.9 | -3.9 | 5842 | -15.7
COc1ccc2nc(NC(=O)CCNC(=O)c3ccco3)sc2c1 | -30.6 | . | 5.3 | 0.1 | 3.5 | 3601 | 2.2
CCC1CCc2c(n(C)c3ccccc3c2=O)O1 (centres undefined) | -44.8 | 1.0 | 3.7 | 8.3 | 3.2 | 9505 | 4.9
COc1ccc(C2CCCN2C(=O)Nc2ccc(Cl)cc2)cc1OC (centres undefined) | -19.3 | 8.5 | -0.3 | 4.3 | -3.7 | 5180 | 3.7
CC(C)Oc1ccc(NC(=O)Oc2ccccc2)cc1 | -19.9 | -2.9 | -0.7 | -3.4 | 11.3 | 5981 | 3.4
COc1cc2c(cc1OC)-c1cc(Nc3ccc(C)cc3)nc(=O)n1CC2 | 1.4 | -12.8 | 13.7 | -1.3 | -2.2 | 3765 | 1.5
CCCN(C(=O)Cc1nc(N)n[nH]1)C1(C(=O)Nc2ccccc2C)CCCCC1 | -6.4 | 11.5 | . | . | -2.9 | 2585 | 4.2
COCC(=O)N(CCN(C)C)Cc1cc2cc3c(cc2nc1Cl)OCO3 | -47.1 | 5.5 | 0.6 | 1.0 | 14.3 | 4251 | 3.1
CCOC(=O)CSc1nc2cccnc2n1C | -28.3 | -6.3 | 8.4 | 4.5 | -5.1 | 4175 | 5.1
COc1cc(CCC(=O)Nc2c(C(=O)N3CCN(c4ccccc4)CC3)oc3ccccc23)on1 | -21.9 | 10.7 | 2.8 | -1.8 | 2.2 | 4230 | 0.8
CCOC(=O)N1CCN(C(=O)CSc2nc3c(cnn3-c3ccccc3)c(=O)[nH]2)CC1 | -22.6 | -7.5 | 5.6 | 7.7 | -1.8 | 5457 | -0.2
Cc1ccc2c(cnn2C(=O)CCC(=O)NCc2cccc(Br)c2)c1 | -0.6 | -7.7 | 0.1 | 1.2 | -4.2 | 4173 | 4.7
C/C(C=NNc1nc(N2CCOCC2)nc(N2CCOCC2)n1)=C/c1ccccc1 | . | . | -5.0 | -0.3 | -3.6 | . | 1.4

Compound profiles, from the list above. Order of values: PrP UTR inh, BJeLR viability, Mtb hypoxia rep, Mtb hypoxia rep growth, ugtP null kill, Autofluor counter, Sa RN4220 lethal
`C/C(C=NNc1nc(N2CCOCC2)nc(N2CCOCC2)n1)=C/c1ccccc1` across the screens: ., ., -5.0, -0.3, -3.6, ., 1.4
`COc1cc2c(cc1OC)-c1cc(Nc3ccc(C)cc3)nc(=O)n1CC2` across the screens: 1.4, -12.8, 13.7, -1.3, -2.2, 3765, 1.5
`COc1cc(CCC(=O)Nc2c(C(=O)N3CCN(c4ccccc4)CC3)oc3ccccc23)on1` across the screens: -21.9, 10.7, 2.8, -1.8, 2.2, 4230, 0.8
`CCOC(=O)CSc1nc2cccnc2n1C` across the screens: -28.3, -6.3, 8.4, 4.5, -5.1, 4175, 5.1
`CCCN(C(=O)Cc1nc(N)n[nH]1)C1(C(=O)Nc2ccccc2C)CCCCC1` across the screens: -6.4, 11.5, ., ., -2.9, 2585, 4.2

The listing continues.
SMILES | PrP UTR inh | BJeLR viability | Mtb hypoxia rep | Mtb hypoxia rep growth | ugtP null kill | Autofluor counter | Sa RN4220 lethal
CC(=O)Nc1sc2c(c1-c1nc3ccccc3s1)CN(C(C)C)CC2 | 31.0 | . | . | . | 14.1 | 4811 | 7.9
CN(C)CCN(C(=O)c1ccc(S(=O)(=O)N2CCc3ccccc32)cc1)c1nc2ccc(F)cc2s1 | -5.7 | 3.1 | 4.6 | -2.4 | -5.8 | 4461 | 5.9
Cc1ccc(N2CCN(S(=O)(=O)c3ccc(Cl)s3)CC2C)cc1 (centres undefined) | -23.2 | 5.8 | 3.2 | 2.4 | 20.8 | 4964 | -0.9
COc1ccc(CCn2c(SCCN3CCCCC3)nc3ccccc3c2=O)cc1OC | -51.3 | 3.9 | 4.8 | 9.2 | -9.4 | 2504 | 0.3
CC(=NNC(N)=S)C12CC3CC(CC(C3)C1)C2 | . | . | 3.2 | 4.8 | -6.7 | . | 7.3
COc1ccc(CNC(=O)C23CN(Cc4ccccc4)CC2C(c2ccc([N+](=O)[O-])cc2)=NO3)cc1 (centres undefined) | -19.8 | 5.7 | . | . | . | 3804 | .
CC1(C)CC2CC(C)(CN2Cc2cccc([N+](=O)[O-])c2)C1 (centres undefined) | -17.2 | 2.6 | -2.4 | 6.0 | 1.7 | 4790 | 8.1
Cc1cccc(-c2nnc(SCC#N)n2-c2cccc(Cl)c2)c1 | -2.8 | -4.8 | 3.9 | 3.6 | 0.9 | 2981 | 4.2
COC(=O)c1[nH]c2cccc(OC)c2c1NC(=O)CCN1CCN(c2cccc(Cl)c2)CC1 | . | . | 4.1 | 4.3 | -10.5 | . | -21.3
Cc1ccc(S(=O)(=O)N/N=C/c2ccc(OS(=O)(=O)c3ccc(C)c([N+](=O)[O-])c3)cc2)cc1 | -14.4 | -3.6 | . | . | . | 5101 | .
O=c1cc(-c2ccc(O)c(O)c2)oc2c1ccc1ccccc12 | -0.3 | . | 4.4 | -7.4 | 4.8 | 8343 | -0.7
CCOc1ccc(C(=O)COC(=O)C2COc3ccccc3O2)cc1 (centres undefined) | -6.0 | . | 3.8 | -2.2 | -0.7 | 3765 | 5.7
Cc1ccc(N(CC(=O)NC2CCCCC2)C(=O)CCC(=O)Nc2nccs2)cc1 | -14.9 | 0.5 | 13.7 | 12.4 | -2.4 | 3543 | 1.0
O=C(Cn1cnc2ccccc2c1=O)c1ccc(Cl)cc1 | -35.8 | -1.1 | 5.0 | -6.5 | -2.8 | 2120 | -3.8
Cc1cccc(C2C3=C(Nc4[nH]n(-c5ccccc5)c(=O)c42)c2ccccc2C3=O)c1 (centres undefined) | -7.3 | -0.2 | 5.8 | 4.6 | 21.1 | 2525 | 44.5
CC(C)(C)OC(=O)N[C@@H](Cc1ccccc1)c1nnc(S(=O)(=O)Cc2cccc(F)c2)o1 | . | 7.1 | . | . | 5.1 | . | 4.0
NC(=O)c1ccsc1NC(=O)COC(=O)Cc1n[nH]c(=O)c2ccccc12 | 5.9 | 5.0 | -2.4 | -5.9 | 2.3 | ? | 5.2
O=c1[nH]c(O)c(/C=C2\C=NN=C2c2ccccc2)c(=O)[nH]1 | -12.8 | 12.2 | 1.3 | -0.8 | 4.2 | 21773* | -1.3
CC(C)CNc1nc(Oc2ccc(=O)n(-c3ccccc3)n2)nc(N2CCOCC2)n1 | -8.0 | -4.2 | . | . | 9.5 | 4040 | -2.4
C=CCNC(=O)c1ccc(NC(=O)CC2SC(N3CCCC3)=NC2=O)cc1 (centres undefined) | -22.2 | -0.4 | 11.4 | -0.4 | 4.1 | ? | 2.9
COc1ccc(OCc2nnc(SCC(=O)NCc3ccco3)o2)cc1 | -13.8 | 0.7 | 5.9 | 22.5 | 2.9 | 4074 | 3.2
CC1(C)Cc2c(cnn2-c2cccc(F)c2)C(NC(=O)CCN2CCCC2=O)C1 (centres undefined) | -6.8 | 1.3 | 2.9 | -6.9 | 4.3 | ? | 0.7
